Assay outcomes deposited in PubChem by Johns Hopkins Ion Channel Center.
KCNQ2 enhance: enhances the rat KCNQ2 potassium channel; CHO-K1 KCNQ2, FluxOR thallium flux fluorescence; hits give high values; 310,000 tested, 0.54% active; B-score at 10 µM;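 active = fluorescence ratio B-score at least 3 SD of library B-scores, with initial fluorescence B-score within 3 SD, cut at about 5.3 in these data; same plate scores as AID 2156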;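 also: B-score of peak minus minimum over baseline fluorescence ratio after K+ and Tl+ stimulus; positive B-score means potentiation of KCNQ2 with more thallium influx and brighter signal; only the inactives scoring about 0 or higher are listed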
Target sequence (O88943 whole entry, looked up): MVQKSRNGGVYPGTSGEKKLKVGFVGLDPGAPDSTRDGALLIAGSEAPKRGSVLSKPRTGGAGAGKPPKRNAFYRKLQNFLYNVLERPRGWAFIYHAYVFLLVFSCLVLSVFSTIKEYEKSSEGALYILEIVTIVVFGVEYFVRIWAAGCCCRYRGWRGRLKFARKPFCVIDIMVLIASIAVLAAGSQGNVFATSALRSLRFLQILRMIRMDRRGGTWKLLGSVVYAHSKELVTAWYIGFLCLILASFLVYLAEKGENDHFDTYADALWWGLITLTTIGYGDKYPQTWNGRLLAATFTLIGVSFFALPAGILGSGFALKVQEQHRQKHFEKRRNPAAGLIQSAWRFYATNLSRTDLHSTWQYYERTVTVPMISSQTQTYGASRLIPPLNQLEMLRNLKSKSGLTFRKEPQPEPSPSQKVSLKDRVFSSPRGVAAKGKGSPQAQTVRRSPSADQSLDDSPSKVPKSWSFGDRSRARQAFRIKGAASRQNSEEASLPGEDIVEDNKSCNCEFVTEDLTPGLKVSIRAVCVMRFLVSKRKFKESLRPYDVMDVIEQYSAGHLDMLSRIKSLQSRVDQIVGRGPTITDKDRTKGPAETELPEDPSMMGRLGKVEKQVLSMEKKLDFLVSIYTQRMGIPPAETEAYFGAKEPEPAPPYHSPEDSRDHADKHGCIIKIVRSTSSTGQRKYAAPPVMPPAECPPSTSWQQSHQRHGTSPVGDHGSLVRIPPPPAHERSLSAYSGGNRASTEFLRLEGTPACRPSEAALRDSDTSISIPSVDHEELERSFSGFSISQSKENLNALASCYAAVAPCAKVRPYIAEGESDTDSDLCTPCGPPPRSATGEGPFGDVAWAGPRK
KCNQ2 enhance baseline: further read-out of KCNQ2 enhance, marked with its call; B-score; compound at 10 µM; measured here: initial fluorescence intensity artifact check;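 brightness before thallium and not channel activity; 0 = typical well and far values either way flag optical interference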
Active calls of the source: *. Some of the compounds tested (hit frequency here may not be typical).

SMILES | KCNQ2 enhance | KCNQ2 enhance baseline
Cc1ccc(NC(=O)CN(C)C(=O)Cn2ncc(Cl)c(Cl)c2=O)cc1 | 0.05 | 2.2
Nc1nnc(-c2ccc(F)cc2)s1 | 1.7 | -0.42
CCCn1c(C(C)Nc2nc(-c3ccc(OC)cc3)cs2)nc2ccccc21 (stereo unspecified) | 0.04 | 0.08
O=C(O)CCCC(=O)Nc1cccc(-c2nc3ccccc3[nH]2)c1 | 0.04 | 1.1
CNCC/C=C1/c2ccccc2CSc2ccccc21 | 0.46 | 0.11
C#CCOCCOCCOCCNc1nc(N2CCOCC2)nc(N2CCN(C(=O)[C@H]([C@@H](C)CC)n3cc(CCCCN)nn3)CC2)n1 | 0.17 | -0.46
O=C(Cn1cc(C(F)(F)F)ccc1=O)N/N=C/c1ccccc1 | 2.8 | 0.83
NNC(=O)CSc1ncc(-c2ccccc2)[nH]1 | 0.12 | -0.06
CC(C)c1ccc(C2=NN(c3ccccc3)C(=O)CC2)cc1 | 1.6 | 0
CCc1nc2cc3sc(CC)nc3cc2s1 | 0.47 | -2.3
COc1ccc(CNC(=O)C2CCN(C(=O)c3cccc(Cl)c3)CC2)cc1 | 0.57 | 0.63
CCN(CC)CCCN(C(=O)c1ccccc1F)c1nc(-c2ccc(OC)cc2)cs1 | 0.03 | -1.7
CCN(Cc1ccccc1)C(=O)COC(=O)c1cnc(C)cn1 | 0.44 | -1.8
Cc1nnc2sc(SCC(=O)N3CCC(C)CC3)nn2c1=O | 0.83 | -0.41
C[C@@H]1CCC2[C@](C)(CO)[C@@H](O)CC[C@]2(C)[C@@]12CC[C@@](CO)(CC(=O)O)O2 (stereo partly specified) | 0.02 | -0.13
CCc1nn(CC(=O)NCCCN2CCOCC2)c(=O)c2cc3cc(F)ccc3n12 | 0.18 | -0.31
O=c1cc2ncc(-c3[nH]ncc3[N+](=O)[O-])cn2[nH]1 | 0.17 | -1
CCOc1ncccc1C(=O)Nc1ccc(F)c(Cl)c1 | 0.4 | 1.1
CC(C)CCC(C(=O)O)C(C)CC(=O)NC1CCCCC1 (stereo unspecified) | 0.93 | 1.5
CCOCCCn1c(=NC(=O)c2ccc(OC)c(OC)c2)c(C#N)cc2c(=O)n3cccc(C)c3nc21 | 0.03 | 0.07
Cc1ccc(OCC(=O)NNC(=O)c2ccccc2OCc2c(C)noc2C)cc1 | 0.05 | -1.9
NC(=O)c1cc2cc(Cc3ccccc3Cl)ccc2oc1=O | 0.06 | 0.41
CCc1ccc(C(=O)NNc2ccc(F)cc2)cc1 | 1.2 | 1.7
N#Cc1c(-c2cccc([N+](=O)[O-])c2)nc2n(c1=O)CCS2 | 1.5 | 0
Cc1cc(C)c(C(=O)O)c(CC(C)(C)C(=O)O)c1 | 0.01 | 2.2
CC(=O)N/N=C(\C)CC(=O)Nc1cccc(C(F)(F)F)c1 | 0.47 | 0
COCCn1c(SCC(=O)Nc2ccc(F)cc2)nc2c([nH]c3ccccc32)c1=O | 0.57 | 0.2
CCOc1c(OC)ccc2c3c(c(=O)oc12)CCCC3 | 2.2 | 0.29
COc1ccc(C(=O)NCC2CCCO2)cc1S(=O)(=O)N1CCCc2ccccc21 (stereo unspecified) | 0.64 | -0.1
CC(=O)Nc1ccc(NC(=O)CC(NC(=O)c2ccccc2)c2ccccc2)cc1 (stereo unspecified) | 1.2 | -1.2
O=C(COC(=O)/C=C/c1ccccc1[N+](=O)[O-])NC1CC1 | 1.4 | -0.65
COc1ccc(/C=C/C(=O)Nc2ccccc2)cc1OC | 0.19 | -1.6
CCOC(=O)N1CCN(C(=O)c2ccccc2NC(=O)c2ccc(F)cc2)CC1 | 0.24 | 0.03
CCSc1nc(N2CCOCC2)c2c(c1C#N)CCCC2 | 0.85 | 0.64
COc1cccc(N(CC(=O)Nc2ccccc2C(=O)N2CCCC2)S(C)(=O)=O)c1 | 0.51 | 3.2
COC(=O)c1ccccc1NC(=O)COC(=O)[C@H](C)NC(N)=O | 0.13 | 1.9
NC(=O)CN1C(=O)NC2(CCCc3sccc32)C1=O (stereo unspecified) | 0.74 | -0.21
O=C(Nc1ccc(Oc2ccccc2)cc1)c1ccc(Cn2c(=O)[nH]c3ccsc3c2=O)cc1 | 0.13 | -0.16
COc1cc2c(=O)n(CCC(=O)NCC3CCCO3)c(=O)n(CC(=O)Nc3ccccc3C)c2cc1OC (stereo unspecified) | 0.74 | 0.28
O=C(CN1CCOCC1)NNC(=O)c1ccc([N+](=O)[O-])cc1 | 0.74 | -0.57
Cc1c(Cl)ccc2c(C(=O)O)cc(-c3ccccc3)nc12 | 3.1 | -0.69
O=S(=O)(Nc1ccc(Cl)cn1)c1ccc2c(c1)OCCO2 | 0.81 | -0.4
COC(=O)c1ccc(N2NC(=O)/C(=C/c3cc(OC)c(OC)c(OC)c3)C2=O)cc1 | 0.1 | 2.1
COc1ccc2c(Cl)c(C(=O)NCC3CCCO3)sc2c1Cl (stereo unspecified) | 1.7 | -0.98
Cc1ccc(C)c2sc(NC(=O)c3nc4ccccc4s3)nc12 | 2.3 | -0.25

Looked up above.
In KCNQ2 enhance baseline, Cc1ccc(C)c2sc(NC(=O)c3nc4ccccc4s3)nc12 reads -0.25
In KCNQ2 enhance baseline, NC(=O)CN1C(=O)NC2(CCCc3sccc32)C1=O (stereo unspecified) reads -0.21
In KCNQ2 enhance baseline, CCOC(=O)N1CCN(C(=O)c2ccccc2NC(=O)c2ccc(F)cc2)CC1 reads 0.03
In KCNQ2 enhance, CCSc1nc(N2CCOCC2)c2c(c1C#N)CCCC2 reads 0.85
In KCNQ2 enhance, COc1cccc(N(CC(=O)Nc2ccccc2C(=O)N2CCCC2)S(C)(=O)=O)c1 reads 0.51

Continued.
SMILES | KCNQ2 enhance | KCNQ2 enhance baseline
O=[N+]([O-])c1cc(C(F)(F)F)ccc1N1CCN(S(=O)(=O)c2ccc3ccccc3c2)CC1 | 1.1 | 0.66
O=C(Nc1cc([N+](=O)[O-])ccc1C(=O)NCCN1CCOCC1)c1ccccc1 | 2.3 | -0.04
CN(C)S(=O)(=O)c1cccc(NC(=O)COC(=O)CCC(=O)c2cccs2)c1 | 0.63 | -0.63
Cc1cc(C)c2nc(N3CCC(C(=O)NCc4cccnc4)CC3)sc2c1 | 0.39 | 0.35
C(=N\Nc1nc2ccccc2[nH]1)/c1ccc2c(c1)OCCO2 | 0.01 | 1.1
CCOc1ccc(NC(=O)Nc2cccn(Cc3ccccc3)c2=O)cc1 | 1.2 | 0.42
CC(O)COc1ccc(/C(=N/O)c2ccccc2)cc1 (stereo unspecified) | 0.43 | 0.29
COc1ccc(C(=O)COC(=O)CCn2nnc(-c3cccc(O)c3OC)n2)cc1 | 0.77 | -2
C/C(=N/NC(=O)c1ccc2c(c1)OCO2)c1cccc([N+](=O)[O-])c1 | 0.32 | -0.78
CC(=O)Oc1c(-c2ccc(Br)o2)oc2ccccc2c1=O | 16* | 1.7*
CSC1=NCCN1C(=O)Cc1ccc(Cl)cc1 | 1.2 | 0.64
CN1C(=O)/C(=C/c2ccccc2OCc2cccc(F)c2)NC1=S | 1.4 | -0.17
NC(N)=NN=C1CCC(c2ccccc2)CC1 (stereo unspecified) | 1.1 | 0
CC1(C)Cc2c(C#N)c(SCC(=O)c3ccccc3)nc(N3CCOCC3)c2CO1 | 2.4 | -0.1
Nc1ccc(C(=O)NC23CC4CC(CC(C4)C2)C3)cc1 | 0.76 | -1.4
Cc1cc(C)c(S(=O)(=O)c2cccc(C)c2C)c(=O)[nH]1 | 0.01 | 0.87
NCCOc1ccccc1Cc1ccccc1 | 0.95 | -0.84
CN(c1ccc(OCC(=O)OCC(=O)Nc2ccccc2F)cc1)S(=O)(=O)c1cccs1 | 0.68 | -0.92
O=C(O)C1CCN(S(=O)(=O)/C=C/c2ccccc2)CC1 | 1.2 | -0.11
NS(=O)(=O)c1ccc(NC(=O)c2ccc3nccnc3c2)cc1 | 1.6 | 0.61
COC(=O)c1c(C)[nH]c(C(=O)/C=C/c2ccccc2)c1C | 0.04 | -0.1
COC(=O)c1ccc(-n2c(C)cc(-c3csc(NC(=O)c4ccc(S(=O)(=O)N(C)C)cc4)n3)c2C)cc1 | 1.5 | -0.92
CCOC(=O)c1cnc2c(C(F)(F)F)cccc2c1N1CCOCC1 | 1.4 | 0.9
Cc1c(C(=O)NC(=S)NCC(C)C)oc2ccccc12 | 1.1 | -0.05
CCCC(=O)Nc1cccc(Oc2ccc3c(c2)C(=O)NC3=O)c1 | 2.4 | 1.8
O=C(O)c1nccnc1C(=O)Nc1ccc(Cl)cc1Cl | 0.28 | -1.4
CC(=O)c1c(C)c2c(n1CCN(C)C)CCCC2 | 1.6 | 2.6
Cc1cc(N)n2nc(-c3ccc(C(C)(C)C)cc3)cc2n1 | 0.9 | 1.8
Cc1ccc(C(=O)COC(=O)CNS(=O)(=O)c2ccccc2)cc1[N+](=O)[O-] | 0.82 | -0.48
CCCC[C@@H]1CNCCN1CCCc1cc(OC)c(OC)c(OC)c1 | 0.02 | -1.4

An excerpt from above in order of SMILES length, lowest first:
SMILES | KCNQ2 enhance | KCNQ2 enhance baseline
CC(=O)c1c(C)c2c(n1CCN(C)C)CCCC2 | 1.6 | 2.6
O=C(O)C1CCN(S(=O)(=O)/C=C/c2ccccc2)CC1 | 1.2 | -0.11
COC(=O)c1c(C)[nH]c(C(=O)/C=C/c2ccccc2)c1C | 0.04 | -0.1
Cc1cc(C)c(S(=O)(=O)c2cccc(C)c2C)c(=O)[nH]1 | 0.01 | 0.87
CN(c1ccc(OCC(=O)OCC(=O)Nc2ccccc2F)cc1)S(=O)(=O)c1cccs1 | 0.68 | -0.92

The results go on.
SMILES | KCNQ2 enhance | KCNQ2 enhance baseline
COc1ccc(N2CCOCC2)c(NC(=O)c2cccnc2)c1 | 0.27 | 0
Cc1nn(C)cc1CNC(=O)C1C2CCC(C2)C1C(=O)O (stereo unspecified) | 1.3 | 0.14
Cc1cc(C)n(CC(=O)NCc2ccccc2)c(=O)c1C#N | 0.13 | -0.1
CCN1CCc2c(sc(NC(=O)C3CCCCC3)c2C(=O)OC)C1 | 0.45 | -1.6
Cc1ccccc1C(=O)Nc1ccc2c(c1)OCCO2 | 2.8 | -1.1
Cn1c(CCNC(=O)c2ccccc2F)nnc1SCc1nc2ccccc2c(=O)[nH]1 | 0.98 | -4.8
CCCCn1nnc(NC(=O)Cc2ccc(Cl)cc2)n1 | 2.9 | 1.8
COc1ccc2cc(CN(C(=O)Nc3ccccc3OC)C3CCCC3)c(=O)[nH]c2c1 | 0.04 | -0.79
CCCCOc1ccc(S(N)(=O)=O)cc1 | 1.4 | 0.68
CCN(CC)S(=O)(=O)c1ccc(C(=O)Nc2ccc3c(c2)OCCO3)cc1 | 0.27 | 0.52
CC(C)C(=O)Nc1ccc(NC(=O)CCc2ccccc2)cn1 | 0.79 | 0.77
CC1CC(C)CN(CCCNC(=O)CCNC(=O)Cn2cnc3ccccc3c2=O)C1 (stereo unspecified) | 0.01 | 1.5
CCn1c(N2CCN(S(=O)(=O)c3ccc(OC)cc3)CC2)nc2ccccc21 | 0.05 | 0.02
COc1ccccc1CC(=O)Nc1cccc(C)n1 | 0.28 | -0.46
N#CCC(=O)N/N=C\c1cccc(OC/C=C/c2ccccc2)c1 | 0.15 | -0.01
O=C(c1ccco1)N1CCN(Cc2cc(=O)c(OCc3cccc(F)c3)co2)CC1 | 0.74 | 0.48
CC(C)NC(=O)COC(=O)/C=C/c1ccc(F)cc1 | 0.09 | 0.26
Cc1ccc([N+](=O)[O-])cc1/C=N/Nc1nnnn1-c1ccccc1 | 0.03 | -0.37
Cc1cc(C)n(C2CC(=O)N(c3ccc(C)c(Cl)c3)C2=O)n1 (stereo unspecified) | 0.21 | -0.41
CC(=O)Nc1nc(N2C(=O)c3ccccc3C2=O)n(-c2ccccc2)n1 | 2.9 | 0.26
Cc1ccc(C(=O)NCCC(=O)Nc2ccccc2C)cc1 | 0.9 | -1.6
NS(=O)(=O)c1ccc(NC(=S)N2CCN(S(=O)(=O)c3ccc(F)cc3)CC2)cc1 | 1.8 | 0.79
O=C(NCCN1CCOCC1)[C@H](Cc1ccccc1)N1C(=O)c2ccccc2C1=O | 0.91 | -0.08
CCCNC(=O)c1ccccc1C(=O)NC1(C(=O)NCCC)CCCC1 | 0.81 | -0.15
O=S1(=O)CC2SC(=S)N(Cc3ccccc3)C2C1 (stereo unspecified) | 0.07 | 0.25
Cc1nc2ccc(CCO)cc2s1 | 0.27 | -1.4
CCOC(=O)c1ccc(NC(=O)CN(C)S(=O)(=O)c2ccc(Br)s2)cc1 | 0.11 | 0.7
COc1ccc(CCN(C(=O)c2ccccc2)C2=CC3CCC(C2)N3C)cc1OC (stereo unspecified) | 0.81 | 1.7
Cc1ccc(C(=O)N/N=c2\sc3ccccc3n2C)cc1 | 12* | 1.3*
COc1cc(C(=O)Nc2nnc(C)s2)c([N+](=O)[O-])cc1OC | 0.4 | 0.55
Cc1c(Br)c([N+](=O)[O-])nn1CC(=O)N1CCc2ccccc21 | 0.22 | 1.2
O=C1[C@H]2[C@@H](/C=C/c3ccccc3)N3C(=O)CN(CCO)C(=O)[C@@]3(Cc3ccccc3)[C@H]2C(=O)N1c1ccccc1 | 1.1 | 2.7
COc1cccc2sc(NNC(=O)C3COc4ccccc4O3)nc12 (stereo unspecified) | 1.3 | -0.59
Cc1ccc(SC(c2ccccc2)C(Cn2cncn2)C(=O)c2ccccc2)cc1 (stereo unspecified) | 0.66 | -0.37
CC(c1nnc(SCC(=O)c2c(N)n(C)c(=O)n(C)c2=O)n1-c1ccc(Cl)cc1)N(C)C (stereo unspecified) | 0.08 | -1.4
CCCCN(C(=O)CSc1cc(C)c2ccccc2n1)c1c(N)n(Cc2ccccc2)c(=O)[nH]c1=O | 0.4 | -0.73
Cc1ccc(C(=O)Nc2ccc3cn[nH]c3c2)cc1S(=O)(=O)N1CCCCC1 | 0.33 | 0.3
